Screens from PubChem.
TRPML1 blocker: qHTS for Inhibitors of the Human Mucolipin Transient Receptor Potential 1 (TRPML1) | Mucolipin-1 (Homo sapiens), Q9GZU1 | TRPML1-inducible cells, Ca2+ dye fluorescence, FDSS; hits give low values; inhibition of EC80 agonist-evoked calcium signal | activity change, negative = inhibition, % (test concentration not listed) | 0.02% of 390,000 active | AID 624415, 2012; in the data active means activity change below about -50%; inconclusive means about -30% to -50%; inactive means above about -30%;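 further: stimulus is agonist 54-4 at its EC80 concentration; on the % scale 0 is the no-effect control and ±100 the full control effect; compound concentration not given in the record; the text of the record puts the active cut at -80%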
Target sequence (Q9GZU1 whole entry, looked up): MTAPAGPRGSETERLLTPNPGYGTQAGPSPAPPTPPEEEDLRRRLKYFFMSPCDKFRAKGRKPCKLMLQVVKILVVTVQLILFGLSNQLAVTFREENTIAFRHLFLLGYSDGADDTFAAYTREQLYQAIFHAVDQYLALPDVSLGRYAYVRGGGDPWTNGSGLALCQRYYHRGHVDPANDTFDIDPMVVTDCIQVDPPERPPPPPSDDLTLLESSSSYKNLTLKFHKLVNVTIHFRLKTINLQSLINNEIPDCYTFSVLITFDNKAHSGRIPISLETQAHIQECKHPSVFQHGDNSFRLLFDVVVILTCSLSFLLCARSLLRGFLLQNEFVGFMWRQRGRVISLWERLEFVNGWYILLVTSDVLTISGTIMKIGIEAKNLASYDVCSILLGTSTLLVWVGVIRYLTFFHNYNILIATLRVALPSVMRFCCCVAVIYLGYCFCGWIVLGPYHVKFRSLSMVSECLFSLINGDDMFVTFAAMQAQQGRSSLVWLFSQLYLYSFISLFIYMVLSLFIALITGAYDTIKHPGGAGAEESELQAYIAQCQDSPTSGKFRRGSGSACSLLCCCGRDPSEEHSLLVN
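TRPML1-DL cells, Tet-induced overnight (~16 h, 37 °C) at 1,500 cells/well, were loaded with Ca8 no-wash dye plus quencher for 45-90 min at room temperature. Compounds were pinned during FDSS kinetic reading; agonist 54-4 at EC80 (4 uM final) then added.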
ClpP mod: qHTS Assay for Activators of ClpP | ATP-dependent Clp protease proteolytic subunit (Bacillus subtilis (strain 168)), P80244 | purified B. subtilis ClpP, FRET peptide cleavage, 20 min | Potency, µM (series often up to 57.5 µM), for the others: at the highest dose activity change, negative = active | 1.9% of 340,000 active | AID 651965, 2013; active = well fitted falling curve with a large enough effect; inconclusive = small, poorly fitted or top-dose-only effect; inactive = no such curve, though single readings can be large or run the other way; further: potency means the concentration at half of the fitted maximal effect; the source files actives as falling curves though it sought activators and does not explain the sign; nearly all actives have a fitted effect of over 65% in size; many hits overshoot -100%
Target sequence (P80244 whole entry, looked up): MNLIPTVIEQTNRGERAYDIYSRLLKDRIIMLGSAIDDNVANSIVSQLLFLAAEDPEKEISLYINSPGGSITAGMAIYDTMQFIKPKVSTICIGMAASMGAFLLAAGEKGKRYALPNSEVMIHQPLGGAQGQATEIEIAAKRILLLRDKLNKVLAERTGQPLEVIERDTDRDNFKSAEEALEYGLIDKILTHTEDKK
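FRET quenching reversal measured ClpP activation: 10 microg/mL B. subtilis ClpP at pH 8 with the FRET-FV decapeptide, read at 430 nm after 320 nm excitation. The 20-min minus 0-min signal was scaled between DMSO/no-enzyme wells and ADEP (5.8 microM final).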
TRPML1 agonist: qHTS for Agonists of the Human Mucolipin Transient Receptor Potential 1 (TRPML1); Mucolipin-1 (Homo sapiens), Q9GZU1; TRPML1-expressing cells, Ca2+ dye fluorescence, FDSS; host cell line not named in the record; reference of the full effect not given here; activation, % (no concentration beside the values); 0.12% of 410,000 active; AID 624414, 2012; in the data active = activation above about 50%; inconclusive = about 30% to 50%; inactive = below about 30%; further: 0% is about no effect; the text of the record puts the active cut at 80%
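In this qHTS format, compounds were pin-transferred onto Ca8-dye-loaded TRPML1-DL cells induced with Tet overnight, and intracellular Ca2+ fluorescence was recorded kinetically for 110 s after a 10 s baseline. A subsequent 4uM final 54-4 (EC80) addition followed by a second 110 s read served as the antagonist phase.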
PINK1 modulator: A Quantitative High throughput Screen to Identify Chemical Modulators of PINK1 Expression. 0.2% of 410,000 active. Potency, µM (highest dose often 76.6 µM), without a hit: at the highest dose activation (PINK1 increase), most hits filed as activators. PINK1 immunofluorescence, high-content cytometry, 24 h; active = well fitted activation curve with a large enough effect; inconclusive = small, poorly fitted or top-dose-only effect; inactive = flat fitted curve, though single readings scatter; cell line not stated here;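 further: potency means the concentration at half of the fitted maximal effect; % of control where 0% means no effect; nearly all actives have a fitted effect of over 65% in size; a mitochondrial uncoupler was the plate control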
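Stable cell line, 250 cells/well, 12 h attachment; compounds pinned at 5 concentrations, 24 h; CCCP control. Fixed with nuclear dye, primary antibodies 12 h at 10 degrees C, secondary plus cell stain; laser-scanning cytometer read.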
Sfp inh: qHTS Assay for Inhibitors of Bacillus subtilis Sfp phosphopantetheinyl transferase (PPTase); 4'-phosphopantetheinyl transferase ffp (Bacillus subtilis), Q9F4F7; Biochemical Sfp PPTase activity, qHTS; Potency, µM, for the others: max response, negative = inhibition, actives largely listed as inhibitors; 3.5% of 310,000 active; active means well fitted inhibition curve with a large enough effect; inconclusive means small, poorly fitted or top-dose-only effect, or another doubt; inactive means no such curve, though single readings can be large or run the other way;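 further: the enzyme is Sfp with the accession as filed and its product quenches rhodamine fluorescence; potency means the concentration at half of the fitted maximal effect; 0% = enzyme reaction without inhibitor and -100% = no enzyme wells; top concentration of the series not given in the record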
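Buffer: 50 mM Hepes-Na pH 7.6, 10 mM MgCl2, 0.01% Nonidet P-40, 0.01% BSA. Enzyme 15 nM, pre-exposed to compound 15 min; substrates then added and fluorescence change tracked over 30 min.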
TRPV1 potentiator: HTS Assay for Compounds that Act as Potentiators of the Vanilloid Receptor 1. Transient receptor potential cation channel subfamily V member 1 (Homo sapiens), Q8NER1. TRPV1-expressing cells, Fluo-8 calcium influx, capsaicin EC20 potentiation; host cell line not named in the record; control for the full effect not named in the record. potentiation, % at 8.33 µM. 0.02% of 320,000 active. AID 540277, 2011; active means potentiation above 80%; inconclusive means 30% to 80%; inactive means below 30%; further: 0% is about no effect
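Fluo-8 calcium influx in TRPV1-expressing cells, kinetic read (ex 480/em 520 nm). Compound added and read 3 min for agonist activity, followed by capsaicin at EC20 final and 2 min further read for enhancement.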
Menin-MLL FL inh: qHTS Assay for Inhibitors Targeting the Menin-MLL Interaction in MLL Related Leukemias: Competition With Fluorescein Labeled MLL-derived Peptide | Fluorescence polarization, fluorescein-MLL peptide displacement from menin | FP activity change, % at 61.4 µM | 290,000 tested, under 10 active; inconclusive = falling polarisation curve, or a change in total fluorescence; inactive = total fluorescence flat and polarisation flat or rising; no compound was filed as active; the % refers to the polarisation; negative = inhibition;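 further: % of control where 0% means no effect; inhibitors lower the polarisation; unlabelled MLL peptide was the positive control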
* marks the source's active call; other numbers are inactive results; ? = inconclusive; . = no result given; [ ] = remark or other dose.

canonical_smiles	TRPML1 blocker	ClpP mod	TRPML1 agonist	PINK1 modulator	Sfp inh	TRPV1 potentiator	Menin-MLL FL inh
COc1ccc(CNC(=O)C2CCN(c3nc(OC)nc(OC)n3)CC2)cc1	8	1.4%	1.1	3.6%[38.3 µM]	20%	-1	4.2
Cc1ccc(Nc2nc(Cl)nc(N(C)C#N)n2)cc1	6	-0.1%	-0.1	-0.8%	15%	3	8.6
O=C(Cn1cnc2c(nnn2-c2ccc(F)cc2)c1=O)NCc1ccco1	5	0.8%	-0.2	1.7%[38.3 µM]	-35%	-11	-3.7
CC(C)c1nnc(NC(=O)CCC(=O)N2CCC(Cc3ccccc3)CC2)s1	-9	0.2%	-1.3	1.6%	11%	17	.
CCCCN1CCNC[C@H]1Cc1ccc(O)cc1	8	-0.6%	-0.1	0.5%	.	15	.
N#C/C(=C(/O)c1ccccc1F)c1nc2cc(C(F)(F)F)ccc2s1	-6	1.2%	0.2	?	1%	1	6.0
CCC(=O)c1ccc(N2CCN(C(=O)c3ccc(Br)cc3)CC2)c(F)c1	-2	-2.3%	4.9	-1.1%[38.3 µM]	3%	-2	-0.8
O=C1/C(=C\c2ccc(O)cc2)SC(=S)N1/N=C/c1ccc(O)cc1	-3	-0.7%	23	1.3%	0%	-7	?
O=C(c1cccnc1)N1CCN(Cc2ccccc2Br)CC1	39	-1.9%	-0.5	-2.0%	50µM*	5	1.0
CC(C)(C)c1ccc(C(=O)NCC(=O)OCc2ccc([N+](=O)[O-])cc2)cc1	11	1.0%	0.3	-1.4%	16%	-1	2.2
Cc1cccn2c(CN(C)CC3Cc4ccccc4O3)c(C(=O)N3CCCCC3)nc12 (stereo not given)	3	0.6%	-0.4	-0.2%	-12%	-5	0.3
NS(=O)(=O)c1ccc(NN=C2CCN(Cc3ccccc3)CC2)c([N+](=O)[O-])c1	16	-1.3%	0.2	-0.1%	-26%	3	-0.7
O=C1NC[C@H](c2ccccc2)N(CCCCC2CCCCC2)C1=O	.	0.8%	0.1	-0.3%	.	.	.
COc1ccc(S(=O)(=O)N2CCOCC2)cc1C(=O)N(C)Cc1ccccc1F	1	0.6%	-0.9	-0.4%	.	-13	.
Cc1cccn2c(=O)c3cc(C#N)c(=N)n(CCCN4CCOCC4)c3nc12	-16	?	0.6	?	.	.	.
COc1cc(C2CC(=O)Nc3c2c(C)nn3-c2nncc(-c3ccc(C)cc3)n2)cc(OC)c1OC (stereo not given)	-9	0.0%	-1.0	0.4%	.	.	.
O=C(CCSc1ccccn1)Nc1ccc(Br)cc1	1	?	0.5	1.5%	-11%	-19	0.0
COc1c(Cl)ccc(Cl)c1C(=O)NC(=S)N1CCOCC1	-21	.	0.1	1.5%	5%	-6	2.5
Cc1ccc(C(=O)O/N=C(\N)c2nonc2N)cc1	-6	-0.3%	-1.6	3.3%	9%	-5	3.5
N#Cc1ncc(Cl)c2ccccc12	4	?	1.0	1.5%	17%	1	0.5
CCN(CC)c1nc(Nc2ccc(Cl)cc2)nc(OCC#N)n1	34	-1.5%	4.0	3.8%	-6%	?	3.0
COc1ccc(OC)c(CC(NC(C)=O)C(=O)NC2CCN(c3cc(C)nc4ncnn34)CC2)c1 (stereo not given)	.	.	.	.	12%	14	-8.2
CC(=NCCN1CCNCC1)C1=C(O)CC(C)(C)CC1=O	5	0.0%	-0.5	0.5%[38.3 µM]	-5%	-1	1.3
CCOC(=O)C(C)Sc1nnc2n1C(C)(C)Cc1ccccc1-2 (stereo not given)	-14	-2.7%	1.8	-1.9%	14%	-6	1.8
CCOC(=O)c1ccc(NC(=O)Oc2ccccc2)cc1	-4	-1.8%	-0.1	-1.2%	3%	13	2.0
NC(=O)c1nsc(C(=O)N(CC(=O)NC2CCCC2)c2cccc(C(F)(F)F)c2)c1N	-11	.	-0.1	8.1%	8%	-2	-11
O=C(Nc1nc2c(F)c(F)c(F)cc2s1)c1ccco1	-5	.	0.5	0.8%	16%	-9	5.1
COc1ccc2[nH]c(=O)c(C(c3nnnn3C3CCCC3)N(C)C3CCCCC3)cc2c1 (stereo not given)	-14	?	0.3	0.6%	8%	-25	0.7
CCN(CC)CCNC(=O)c1cc2c(=O)[nH]c3ccc(C)cc3c2s1	-6	?	-0.6	1.7%	.	.	.
COc1cc(C(=O)Nc2cccc(C(C)=O)c2)cc(OC)c1OC	-1	-0.1%	-0.2	0.2%	6%	-10	0.6
COc1ccccc1OCC(=O)N1CCCC(Nc2cccc(F)c2)C1 (stereo not given)	14	1.9%	0.2	-0.7%	10%	-12	-1.3
OC(c1ccc(Cl)c(Cl)c1)c1ncc(-c2ccc(C(F)(F)F)cc2)[nH]1 (stereo not given)	.	-6.4%	0.0	0.1%	.	.	.

An excerpt from above in order of molar mass, low to high:
canonical_smiles	TRPML1 blocker	ClpP mod	TRPML1 agonist	PINK1 modulator	Sfp inh	TRPV1 potentiator	Menin-MLL FL inh
O=C(Nc1nc2c(F)c(F)c(F)cc2s1)c1ccco1	-5	.	0.5	0.8%	16%	-9	5.1
COc1cc(C(=O)Nc2cccc(C(C)=O)c2)cc(OC)c1OC	-1	-0.1%	-0.2	0.2%	6%	-10	0.6
OC(c1ccc(Cl)c(Cl)c1)c1ncc(-c2ccc(C(F)(F)F)cc2)[nH]1 (stereo not given)	.	-6.4%	0.0	0.1%	.	.	.

Continued.
canonical_smiles	TRPML1 blocker	ClpP mod	TRPML1 agonist	PINK1 modulator	Sfp inh	TRPV1 potentiator	Menin-MLL FL inh
CC(c1cccnc1)N(C(=O)Nc1ccccc1)C1CCCCC1 (stereo not given)	-1	0.1%	-0.4	2.6%	14%	.	-2.7
CO/N=C/c1ccc(Oc2ccc([N+](=O)[O-])cc2[N+](=O)[O-])c(OC)c1	65	-17%	0.9	-0.9%	?	1	.
O=C(CSc1ccc(-c2ccccc2)nn1)NCc1ccco1	36	0.4%	1.9	1.8%	-15%	4	-2.9
CC(C)Nc1nc(Nc2ccccc2Cl)c2sccc2n1	.	4.0%	0.8	1.5%	.	.	.
Cc1cccc(NC(=O)N2CCN(Cc3ccc(Cl)cc3)CC2)c1	2	.	-0.3	0.7%	8%	-2	-0.3
COc1cccc(NC(=O)CSc2nnc(Cn3cnc([N+](=O)[O-])n3)n2C)c1	-2	-0.3%	-0.2	3.3%	14%	18	1.8
O=C(OCC(=O)N1CCC(Cc2ccccc2)CC1)c1ccc(CO)cc1	0	4.3%	-0.5	-1.7%	.	-17	.
CN(C)CCCN(C(=O)c1ccc(S(=O)(=O)N2CCCCCC2)cc1)c1nc2cc3c(cc2s1)OCCO3	-19	-0.6%	2.8	-0.6%	.	-21	.
COCc1nnc(NC(=O)c2cccc(NC(=O)c3ccccc3)c2)s1	-7	-0.4%	2.0	1.4%	?	6	-2.8
Cc1nc(SCC(=O)NC2CC2)c2c(C)c(C)sc2n1	2	.	0.1	0.0%	7%	8	-5.9
O=C(/C=C/c1cccc([N+](=O)[O-])c1)N1CCN(Cc2ccccc2)CC1	-18	1.2%	0.4	0.3%	2%	-30	0.7
CCCCCCCOc1ccc(CC(=O)NO)cc1	.	-5.4%	-0.8	1.4%	.	.	.
CC(C)CCn1c(SC(C)C#N)nc2ccccc2c1=O (stereo not given)	.	-2.4%	-0.3	2.6%	.	.	.
CC(=O)Nc1ccc(N=Nc2ccc(O)cc2)cc1	5	0.9%	2.4	2.4%	12%	0	-1.8
Cc1ccc(/C=C/c2ccc(N(C)C)cc2)[n+](C)c1	-9	0.9%	3.4	?	?	3	?
CN1/C(=C/C(=O)c2cccs2)Sc2ccccc21	.	.	.	.	-13%	7	0.9
O=C(COC(=O)c1c2c(nc3ccccc13)CCCC2)Nc1ccc2c(c1)OCO2	21	0.5%	-0.1	-3.8%	12%	22	-1.4
CCCCCCc1cc2cc(-c3nnc(-c4ccc(C)cc4)o3)c(=O)oc2cc1O	-23	0.9%	?	-1.2%	.	.	.
Cc1ccccc1-n1c([C@@H]2C[C@H]2c2ccccc2)n[nH]c1=S	-8	-8.0%	-0.7	1.9%	-4%	.	-2.4
COC(=O)c1sc2nc(SCc3cccc(Cl)c3)n(N)c(=O)c2c1C	6	0.3%	-0.6	8.2%	?	2	-0.1
COc1ccc(S(=O)(=O)c2cnc(SCC(=O)Nc3cc(F)ccc3C)[nH]c2=O)cc1Cl	-7	0.5%	-0.3	2.6%	.	.	.
Cc1c(NC(=O)c2c([N+](=O)[O-])cnn2C)c(=O)n(-c2ccccc2)n1C	4	.	-0.3	0.8%	14%	6	-6.8
CCn1cc(C(=O)O)c(=O)c2cc(F)c(N3CCN(C(=S)NC(=O)c4cccc(C)c4)CC3)cc21	-10	.	0.6	-1.7%	14%	4	4.0
CC1CCc2sc(C(=O)NN)cc2C1 (stereo not given)	30	0.1%	2.3	3.4%	-24%	-11	28
Cc1cc2oc(C(=O)Nc3c(C)n(C)n(-c4ccccc4)c3=O)c(C)c2cc1Cl	12	-4.1%	0.6	2.8%	11%	3	-0.8
S=C(NCCc1ccccc1)N1CCC2CC1c1cc(-c3ccc4c(c3)OCO4)ccc12 (stereo not given)	.	-5.8%	-0.5	-0.1%	.	.	.
Cc1ccc(Nc2nc(NCC3CCCO3)nc(N)c2[N+](=O)[O-])cc1 (stereo not given)	-8	-4.6%	-0.6	6.3%	12%	-12	-0.1
Cc1cccc(NC(=O)CCc2c(C)nn(-c3ccc(N4CCOCC4)nn3)c2C)c1	0	-1.9%	-0.6	0.7%	13%	3	3.2
C=CC[C@@H](CC(=O)N[C@@H](CO)Cc1ccccc1)C(=O)N[C@H](COC(=O)[C@@H](CC=C)Cc1ccc(F)cc1)Cc1ccccc1	-1	1.6%	0.6	?	.	.	.
C=CCc1ccccc1OCCCCN1CCCC1	-4	0.8%	-0.7	-1.1%	-7%	4	0.8
